Assay outcomes (PubChem BioAssay)
Mtb hypoxia inh: inhibitors of hypoxia-regulated fluorescent reporter in Mycobacterium tuberculosis | M. tuberculosis hypoxia-regulated fluorescent reporter, fluorescence | fluorescence inhibition, % (test concentration not listed) | actives 0.1% (n = 300,000) | AID 1159583;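 active means 35 to 45% if threefold the growth effect, above 45% if 1.5-fold the growth effect; inactive means the rest, general growth blockers included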;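 further: wells of about 50 µL received 100 nL stock; 0% = vehicle wells and 100% = reference inhibitor wells; whole bacteria with a GFP reporter of the hypoxia response; strong numbers were not always called active; many hits fall short of the cut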
BJeLR viability: kills HRASV12-expressing BJeLR cells; BJeLR (HRASV12) viability, CellTiter-Glo ATP luminescence, 48 h; reference of the scale not given here; inhibition, % (no concentration beside the values); actives 0.17% (n = 300,000); AID 1554;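 active means replicate mean above 50%; inconclusive means above 50% but judged a plate artefact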;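 further: 50 nL library stock added to about 25 µL; numbers are from one replicate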
RN4220 kill: kills Staphylococcus aureus RN4220; inhibition, % (concentration not given with the values); S. aureus RN4220 growth, OD600, 16 h; actives 0.33% (n = 330,000);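 active means z-score of -3 or lower and OD600 up to 0.18 on both plates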;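 further: plate controls were untreated cells for no effect and reference antibiotic for full effect; stock transfer was 100 nL into about 80 µL; one replicate is shown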
PrP 5UTR inh: inhibition of PrP 5' UTR reporter expression; inhibition, % (concentration not given with the values); cell-based PrP 5' UTR mRNA reporter, plate reader; AID 488862; actives 0.35% (n = 340,000);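 active means every replicate at 50% or more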;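 further: 0 = median of the neutral control wells; tested in H4 reporter cells; numbers are from one replicate; inactives centre near -14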
ugtP null kill: kills S. aureus RN4220 lacking UgtP | growth inhibition, % (concentration not given with the values) | S. aureus RN4220 ugtP deletion, OD600 growth, 16 h; some inactives read as strong as hits | actives 0.54% (n = 330,000);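 active means z-score under -3 and OD600 up to 0.15 on both plates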;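 further: plate controls were untreated wells for no effect and antibiotic for full effect; wells of about 80 µL received 100 nL stock; the first replicate is given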
Bead autofluor: counter-screen for toxin protease inhibitors: compound fluorescence | fluorescence intensity (concentration not given with the values) | actives 3.1% (n = 360,000) | compound autofluorescence counterscreen, microsphere flow cytometry; active compounds read high;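 active means at least 3 SD above the mean of all compounds, about 16000 in these data; inconclusive means too few beads counted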;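 further: 100 nL of 1 mM stock went into each well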
Mtb hypoxia inh growth: also measured in Mtb hypoxia inh; calls as there; growth inhibition, %; measured here: M. tuberculosis growth (absorbance);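 0% = vehicle and 100% = reference antibiotic; read after six days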
* = called active by the depositor. Rows are unselected; 4% or so of the library scored in one or more.

Screening COCCCNC(=O)COc1cc2c(c3oc(=O)c(C)c(C)c13)CCC(C)(C)O2 returned Mtb hypoxia inh 4, BJeLR viability -7, RN4220 kill -0.3, PrP 5UTR inh -15, ugtP null kill 11, Bead autofluor 3332 and Mtb hypoxia inh growth 6.
`O=C(C1CCC(CNS(=O)(=O)c2ccc(F)cc2)CC1)N1CCOCC1` (stereo not drawn) gave Mtb hypoxia inh 14, BJeLR viability -7, RN4220 kill 3.2, PrP 5UTR inh -9, ugtP null kill 0, Bead autofluor 3385 and Mtb hypoxia inh growth 11.
Screening COc1ccc(N2CCN(C(=O)C3CCCN(S(=O)(=O)c4cccc5cccnc45)C3)CC2)cc1 (stereo not drawn) returned BJeLR viability 1, RN4220 kill 1.5, PrP 5UTR inh -20, ugtP null kill 3 and Bead autofluor 5483.
O=C(NC(=S)NNC(=O)c1ccco1)c1ccc(Br)cc1 was read as Mtb hypoxia inh 5, BJeLR viability 9, RN4220 kill 54, PrP 5UTR inh -20, ugtP null kill 36 and Mtb hypoxia inh growth 0.
For Cc1cn(C2OC(COC(=O)c3ccccc3)C(O)C2O)c(=O)[nH]c1=O (stereo not drawn) the results were Mtb hypoxia inh 0, BJeLR viability 16, RN4220 kill 2.7, PrP 5UTR inh -10, ugtP null kill 6, Bead autofluor 8727 and Mtb hypoxia inh growth 6.
For COc1cc(/C=N/NC(=O)CNc2n[nH]c(=O)[nH]c2=O)ccc1OCc1ccccc1 the results were BJeLR viability -2, PrP 5UTR inh -36 and Bead autofluor 3603.
Screening CCOC(=O)N=Nc1c(O)n(CC)c2ccccc12 returned Mtb hypoxia inh 13, BJeLR viability 4, RN4220 kill 5.2, PrP 5UTR inh -3, ugtP null kill 3, Bead autofluor 2709 and Mtb hypoxia inh growth 11.
CSCCC(NC(=O)COc1ccccc1)C(=O)N1CCN(c2ccccc2F)CC1 (stereo not drawn) was read as Mtb hypoxia inh -2, BJeLR viability -6, RN4220 kill -3.0, PrP 5UTR inh -21, ugtP null kill -1, Bead autofluor 9340 and Mtb hypoxia inh growth 11.
For COC(=O)CC(=O)CSc1nc(C)cc(C)c1C#N the results were Mtb hypoxia inh -6, BJeLR viability -12, RN4220 kill 0.3, PrP 5UTR inh 3, ugtP null kill 5, Bead autofluor 9336 and Mtb hypoxia inh growth 5.
Screening CCOc1cc(N2CCOCC2)c(OCC)cc1NC(=O)C(C)C returned Mtb hypoxia inh 13, BJeLR viability 4, RN4220 kill 2.8, PrP 5UTR inh -6, ugtP null kill 8, Bead autofluor 4261 and Mtb hypoxia inh growth 1.
`OCCNCCNCc1ccc(-c2ccccc2)cc1` gave Mtb hypoxia inh 0, BJeLR viability 11, RN4220 kill -2.5, ugtP null kill 3 and Mtb hypoxia inh growth -4.
CC(=NNC(=O)CC1N=C(Cc2ccccc2)NNC1=O)c1ccc(Br)cc1 (stereo not drawn) was read as Mtb hypoxia inh 8, RN4220 kill 6.1, ugtP null kill -2 and Mtb hypoxia inh growth 1.
For CN(C)C(C)(C)/C=C/C(O)(c1ccccc1)c1ccccc1 the results were BJeLR viability -3, PrP 5UTR inh -5 and Bead autofluor 3516.
Screening O=C(CCn1cnc2ccccc21)N/N=C/c1ccccc1O returned BJeLR viability 4, PrP 5UTR inh -32 and Bead autofluor 2871.
For O=C(NC1CC1)C1C2C3C4CC5C3C5C4C12 (stereo not drawn) the results were BJeLR viability -5, RN4220 kill 5.3, PrP 5UTR inh -15, ugtP null kill 5 and Bead autofluor 8178.
CCOC(=O)CNC(=S)N(Cc1ccccc1)Cc1cccs1 was read as Mtb hypoxia inh 14, BJeLR viability 3, RN4220 kill 19, PrP 5UTR inh 1, ugtP null kill 6, Bead autofluor 3140 and Mtb hypoxia inh growth 6.
For Cc1ccccc1Cn1c(CN2CCc3ccccc3C2)nc2c1c(=O)n(C)c(=O)n2C the results were Mtb hypoxia inh 1, BJeLR viability 8, RN4220 kill 5.2, PrP 5UTR inh -16, ugtP null kill -9, Bead autofluor 6498 and Mtb hypoxia inh growth 7.
For NC(=O)COc1c(-c2ccc(Br)o2)oc2ccccc2c1=O the results were Mtb hypoxia inh -4, BJeLR viability 7, RN4220 kill 2.8, PrP 5UTR inh 3, ugtP null kill -8, Bead autofluor 3132 and Mtb hypoxia inh growth 1.
For O=C(NCCc1c[nH]c2ccccc12)c1cccc(S(=O)(=O)Nc2ccccc2Cl)c1 the results were Mtb hypoxia inh 5, BJeLR viability 7, RN4220 kill 15, PrP 5UTR inh -18, ugtP null kill -3, Bead autofluor 2219 and Mtb hypoxia inh growth 1.
For Cc1ccc(Cl)c2sc(NC(=O)C3CC3)nc12 the results were Mtb hypoxia inh 8, BJeLR viability 1, RN4220 kill 7.4, PrP 5UTR inh -2, ugtP null kill 8, Bead autofluor 4157 and Mtb hypoxia inh growth 10.
CC(C)CC(NC(=O)c1ccccc1)C(=O)N/N=C/c1ccco1 (stereo not drawn) was read as BJeLR viability 11, PrP 5UTR inh -23 and Bead autofluor 2778.
For COc1ccc2[nH]c3c(=O)n(CCCN4CCOCC4)cnc3c2c1 the results were Mtb hypoxia inh 5, BJeLR viability 1, RN4220 kill 0.2, PrP 5UTR inh 7, ugtP null kill -1, Bead autofluor 3383 and Mtb hypoxia inh growth 2.
`O=C(O)CSc1ncn[nH]1` gave BJeLR viability -6, RN4220 kill 7.5, PrP 5UTR inh -12, ugtP null kill 2 and Bead autofluor 3614.
For CCn1cc(C(=O)NN)c(=O)c2cc(F)c(N3CCOCC3)cc21 the results were Mtb hypoxia inh 16, BJeLR viability 10, RN4220 kill 5.0, PrP 5UTR inh -18, ugtP null kill 5, Bead autofluor 4035 and Mtb hypoxia inh growth 3.
Fc1ccc2cnc(-c3ccccc3)c(-c3cccc(C(F)(F)F)c3)c2c1 was read as Mtb hypoxia inh 16, RN4220 kill -9.5, PrP 5UTR inh -23, ugtP null kill 39, Bead autofluor 3179 and Mtb hypoxia inh growth 21.
Screening S=C(NCc1ccco1)Nc1ccc(Cl)cn1 returned Mtb hypoxia inh 17, BJeLR viability -10, RN4220 kill -1.6, PrP 5UTR inh -14, ugtP null kill 1, Bead autofluor 5784 and Mtb hypoxia inh growth 7.
C=C(C)C1CC=C(C)C(=NNC(=O)CNc2ccc(OCC)cc2)C1 (stereo not drawn) was read as Mtb hypoxia inh 8, RN4220 kill 5.9, ugtP null kill 0 and Mtb hypoxia inh growth 8.
Screening COc1cc(NC(=O)c2c(F)c(F)c(OC)c(F)c2F)ccc1NC(=O)c1cccs1 returned Mtb hypoxia inh -6, BJeLR viability -4, RN4220 kill 21, PrP 5UTR inh 3, ugtP null kill -5, Bead autofluor 5051 and Mtb hypoxia inh growth 1.
`Cc1cc2cc(CNS(=O)(=O)c3ccccc3)ccc2n1C` gave Mtb hypoxia inh 0, BJeLR viability 4, RN4220 kill -2.0, PrP 5UTR inh -32, ugtP null kill -2, Bead autofluor 1735 and Mtb hypoxia inh growth 10.
Screening CCNc1nc(NCC)n2c(SCC(=O)Nc3ccccc3)nnc2n1 returned Mtb hypoxia inh 14, BJeLR viability -10, RN4220 kill 16, PrP 5UTR inh -9, ugtP null kill -62, Bead autofluor 5116 and Mtb hypoxia inh growth 6.
`CN(CC(=O)Nc1ccc(N2CCOCC2)cc1)C(=O)c1cc2c(s1)CCCC2` gave Mtb hypoxia inh -5, RN4220 kill 2.8, PrP 5UTR inh -5, ugtP null kill 6, Bead autofluor 8884 and Mtb hypoxia inh growth 3.
`COc1ccc(S(=O)(=O)N(C)CC(=O)N2CCCCCC2)cc1OC` gave Mtb hypoxia inh 8, BJeLR viability 4, RN4220 kill 3.9, PrP 5UTR inh -8, ugtP null kill -1, Bead autofluor 3312 and Mtb hypoxia inh growth 11.
Cc1ccc(CN(C)C(=O)C2CCC(=O)N(C3CCCCCC3)C2)cc1 (stereo not drawn) was read as Mtb hypoxia inh 7, BJeLR viability 2, RN4220 kill 4.1, PrP 5UTR inh -17, ugtP null kill 5, Bead autofluor 5101 and Mtb hypoxia inh growth 10.
`COC(=O)c1c(N2C(=O)CC(Sc3ncccc3C(=O)O)C2=O)sc(C)c1C` (stereo not drawn) gave Mtb hypoxia inh -5, BJeLR viability -9, RN4220 kill 3.8, PrP 5UTR inh -18, ugtP null kill -6, Bead autofluor 5761 and Mtb hypoxia inh growth -22.
O=C(O)CCN1C(=O)/C(=C\c2ccc(OCc3ccccc3)c(OCc3ccccc3)c2)SC1=S was read as Mtb hypoxia inh 9, BJeLR viability -18, RN4220 kill 21, PrP 5UTR inh -15, ugtP null kill 21, Bead autofluor 4962 and Mtb hypoxia inh growth 17.
COc1ccc(C(=O)Nc2ccccc2N2CCOCC2)cc1S(=O)(=O)N1CCOCC1 was read as Mtb hypoxia inh -4, RN4220 kill 1.9, ugtP null kill 4, Bead autofluor inconclusive and Mtb hypoxia inh growth 5.

Arranged by length of the SMILES (largest number first): part of the list above.
Screening COc1cc(NC(=O)c2c(F)c(F)c(OC)c(F)c2F)ccc1NC(=O)c1cccs1 returned Mtb hypoxia inh -6, BJeLR viability -4, RN4220 kill 21, PrP 5UTR inh 3, ugtP null kill -5, Bead autofluor 5051 and Mtb hypoxia inh growth 1.
COc1ccc(C(=O)Nc2ccccc2N2CCOCC2)cc1S(=O)(=O)N1CCOCC1 was read as Mtb hypoxia inh -4, RN4220 kill 1.9, ugtP null kill 4, Bead autofluor inconclusive and Mtb hypoxia inh growth 5.
`CN(CC(=O)Nc1ccc(N2CCOCC2)cc1)C(=O)c1cc2c(s1)CCCC2` gave Mtb hypoxia inh -5, RN4220 kill 2.8, PrP 5UTR inh -5, ugtP null kill 6, Bead autofluor 8884 and Mtb hypoxia inh growth 3.
Fc1ccc2cnc(-c3ccccc3)c(-c3cccc(C(F)(F)F)c3)c2c1 was read as Mtb hypoxia inh 16, RN4220 kill -9.5, PrP 5UTR inh -23, ugtP null kill 39, Bead autofluor 3179 and Mtb hypoxia inh growth 21.
C=C(C)C1CC=C(C)C(=NNC(=O)CNc2ccc(OCC)cc2)C1 (stereo not drawn) was read as Mtb hypoxia inh 8, RN4220 kill 5.9, ugtP null kill 0 and Mtb hypoxia inh growth 8.
`COc1ccc(S(=O)(=O)N(C)CC(=O)N2CCCCCC2)cc1OC` gave Mtb hypoxia inh 8, BJeLR viability 4, RN4220 kill 3.9, PrP 5UTR inh -8, ugtP null kill -1, Bead autofluor 3312 and Mtb hypoxia inh growth 11.
`Cc1cc2cc(CNS(=O)(=O)c3ccccc3)ccc2n1C` gave Mtb hypoxia inh 0, BJeLR viability 4, RN4220 kill -2.0, PrP 5UTR inh -32, ugtP null kill -2, Bead autofluor 1735 and Mtb hypoxia inh growth 10.
Screening S=C(NCc1ccco1)Nc1ccc(Cl)cn1 returned Mtb hypoxia inh 17, BJeLR viability -10, RN4220 kill -1.6, PrP 5UTR inh -14, ugtP null kill 1, Bead autofluor 5784 and Mtb hypoxia inh growth 7.

New compounds follow
Screening O=C(Cn1c(=O)oc2cc(S(=O)(=O)N3CCCCC3)ccc21)N1CCc2ccccc21 returned Mtb hypoxia inh 4, BJeLR viability 8, RN4220 kill 0.2, PrP 5UTR inh -41, ugtP null kill 0, Bead autofluor 5759 and Mtb hypoxia inh growth 1.
Screening CCCC1CCc2c(sc(NC(=O)OCC)c2C#N)C1 (stereo not drawn) returned Mtb hypoxia inh -1, BJeLR viability -5, RN4220 kill -1.7, PrP 5UTR inh -32, ugtP null kill 7, Bead autofluor 3543 and Mtb hypoxia inh growth 12.
`CC(C)(C)C(=O)Nc1ccc(C(=O)N/N=C/C2CC3C=CC2C3)cc1` (stereo not drawn) gave BJeLR viability -4, PrP 5UTR inh -24 and Bead autofluor 2003.
`Cc1ccc(Cn2nnc3c(=O)[nH]c(C4CCN(C(=O)c5cccs5)CC4)nc32)cc1` gave Mtb hypoxia inh 2, BJeLR viability 6, RN4220 kill 9.8, PrP 5UTR inh 0, ugtP null kill 38, Bead autofluor 23099* and Mtb hypoxia inh growth -1.
COc1ccccc1-n1cnc2cc(NCc3ccccc3O)ccc21 was read as Mtb hypoxia inh 13, BJeLR viability -10, RN4220 kill 1.9, PrP 5UTR inh -25, ugtP null kill 6, Bead autofluor 3821 and Mtb hypoxia inh growth 20.
